MenB inh = Mtb MenB enzyme inhibition | P9WNP5 | MenB enzyme assay, absorbance read-out; some hits fall short of the stated cut | inhibition, %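 (about 12 µg/mL by stock and volumes)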 | 0.43% of 100,000 active | AID 540299;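 active means mean of two replicates above 30%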;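 further: 0% = no compound and 100% = wells with inactive enzyme; the first replicate is given; strong numbers were not always called active; inactives centre near -10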
Mtb MbtI inh = MbtI salicylate synthase inhibition; purified MbtI enzyme, fluorescence intensity read-out; inhibition, %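 (about 17 µg/mL by stock and volumes)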; 0.89% of 100,000 active; P9WFX0;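 active means above 50% in both replicates, above 80% if mildly self-fluorescent; inactive means the rest, strongly fluorescent compounds included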;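 further: 0% = mean of negative and 100% = mean of positive controls; one replicate is shown; some compounds called inactive have numbers as strong as hits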
Target sequence (P9WFX0 whole entry, looked up): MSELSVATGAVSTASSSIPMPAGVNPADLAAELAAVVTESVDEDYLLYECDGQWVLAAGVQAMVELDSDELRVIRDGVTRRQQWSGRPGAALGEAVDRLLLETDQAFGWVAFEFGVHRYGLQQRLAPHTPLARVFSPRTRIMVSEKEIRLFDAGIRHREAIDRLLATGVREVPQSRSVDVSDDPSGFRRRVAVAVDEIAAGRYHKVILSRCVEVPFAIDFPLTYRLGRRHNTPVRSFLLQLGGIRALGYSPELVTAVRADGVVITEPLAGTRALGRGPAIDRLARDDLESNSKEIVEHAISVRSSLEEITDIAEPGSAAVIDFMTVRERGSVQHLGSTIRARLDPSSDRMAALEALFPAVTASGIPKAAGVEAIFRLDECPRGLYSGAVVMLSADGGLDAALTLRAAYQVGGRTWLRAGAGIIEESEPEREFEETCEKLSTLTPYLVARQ
Polio RdRp inh = poliovirus RNA polymerase inhibition | P03300 | 0.66% of 150,000 active | % elongation, % (compound at 16.7 µg/mL) | poliovirus polymerase elongation, fluorescence polarization; hits give low values; in the data active means % elongation below about 90%; further: some results filed as inactive read as strong as hits
Target sequence (P03300 1749-2209 limits assumed): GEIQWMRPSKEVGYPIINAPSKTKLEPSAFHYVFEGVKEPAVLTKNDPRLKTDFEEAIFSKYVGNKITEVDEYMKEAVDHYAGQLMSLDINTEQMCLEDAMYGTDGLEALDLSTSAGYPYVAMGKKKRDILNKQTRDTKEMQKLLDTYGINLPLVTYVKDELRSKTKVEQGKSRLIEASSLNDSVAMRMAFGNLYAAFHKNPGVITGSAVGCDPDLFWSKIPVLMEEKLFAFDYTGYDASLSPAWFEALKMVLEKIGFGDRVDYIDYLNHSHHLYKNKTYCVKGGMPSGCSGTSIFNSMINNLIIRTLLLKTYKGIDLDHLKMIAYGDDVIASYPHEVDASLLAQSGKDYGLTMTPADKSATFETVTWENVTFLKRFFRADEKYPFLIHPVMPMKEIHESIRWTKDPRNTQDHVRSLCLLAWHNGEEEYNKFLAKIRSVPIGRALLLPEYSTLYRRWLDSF
Polio RdRp inh intensity = also measured in Polio RdRp inh; calls as there; % elongation; measured here: total intensity read-out; formula for this scale not given here;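 total fluorescence in place of polarization; lower means less elongation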
The depositor's hits bear a star; . = not tested or not shown.

SMILES	MenB inh	Mtb MbtI inh	Polio RdRp inh	Polio RdRp inh intensity
CCNC(=S)Nc1sc2c(c1C(=O)OCC)CC(C)(C)OC2	-35	22	102	103
COC(=O)C(N)C12CC3CC(CC(C3)C1)C2 (stereo not given)	17	3	101	104
COC(=O)C(Cc1c[nH]c2ccccc12)NS(=O)(=O)c1ccc(Cl)cc1 (stereo not given)	6	3	101	97
CCc1ccccc1NC(=O)CCn1c(=O)sc2ccccc21	-26	-3	103	94
CSc1ccccc1NC=C(C#N)C#N	-11	24	104	102
Cc1c(C(=O)NCCCn2ccnc2)oc2ccccc12	.	-2	103	102
Nc1ccc(-c2nc3ccccc3n2CCO)cc1	.	59	102	96
Cc1cc(=O)oc2oc3c(O)c(O)ccc3c12	-32	17	103	100
Cn1c(=O)c2c(nc(SCC(=O)N3CCCC3)n2C)n(C)c1=O	10	-5	102	104
O=C(NCCCN1CCCC1=O)C1CCN(c2ncnc3c2sc2cccc(F)c23)CC1	-13	3	105	105
CC1CC(C)CN(C(=O)COC(=O)COc2ccc(Br)cc2)C1 (stereo not given)	.	-5	101	107
Cc1ccc(C(=O)NCC(=O)N2CCN(c3ccccc3)CC2)cc1	-2	-10	101	102
C/C(=C\c1ccco1)C1Nc2cccc3cccc(c23)N1	-43	0	97	104
O=C(CCCn1c(=O)c2cccn2c2ccccc21)Nc1ccccc1F	-24	15	102	101
Cc1sc(/N=C/N(C)C)c(C(=O)c2ccc(Cl)cc2)c1C	-30	5	100	105
CCN1CCSc2ccc(C(=O)Nc3ccc(OC)cc3)cc21	-32	1	100	94
O=C(CN1CCN(Cc2ccccc2)CC1)N1CCCc2c1c(=O)oc1ccc(O)cc21	-30	-4	105	101
NC(=O)COC(=O)c1ccc2ncsc2c1	-2	-30	97	100
Cc1ccc(Cn2nc(C)c3cc(C(=O)OCC(N)=O)sc32)cc1	-3	-8	105	109
O=C(NCC1(c2ccccc2)CCCC1)c1ccc(Br)o1	-26	6	101	99

Reprinted from the part before: four compounds; new compounds follow.
SMILES	MenB inh	Mtb MbtI inh	Polio RdRp inh	Polio RdRp inh intensity
O=C(CN1CCN(Cc2ccccc2)CC1)N1CCCc2c1c(=O)oc1ccc(O)cc21	-30	-4	105	101
NC(=O)COC(=O)c1ccc2ncsc2c1	-2	-30	97	100
Cc1ccc(Cn2nc(C)c3cc(C(=O)OCC(N)=O)sc32)cc1	-3	-8	105	109
O=C(NCC1(c2ccccc2)CCCC1)c1ccc(Br)o1	-26	6	101	99
O=C(COC(=O)c1cc(-c2ccccc2)nc2ccccc12)NCc1ccccc1	.	-14	104	102
CC(C)c1ccc([C@@H]2Nc3ccc(C(=O)O)cc3[C@@H]3C=CC[C@@H]32)cc1	-32	77	92	103
CCOc1nc2sc3c(c2c2ncnn12)CCCC3	-21	-21	100	100
CCC(C)C1Nc2ccc(C(=O)NC3CCCC3)cc2NC1=O (stereo not given)	-14	19	102	103
Cc1nc(CSc2nc3ccccc3s2)cs1	-10	23	99	105
O=c1[nH][nH]c(=S)n1-c1ccccc1C(F)(F)F	-17	23	107	114
CCC(C)NC(=O)[C@@H]1CCCN1S(=O)(=O)c1ccccc1C(F)(F)F (stereo not given in full)	-15	-5	102	110
CCN(CC)CCN1C(=O)C(O)=C(C(=O)/C=C/c2ccco2)C1c1ccc(OC)cc1 (stereo not given)	-14	2	103	103
CCSc1nnc(Cc2cc(=O)[nH]c(=O)[nH]2)n1-c1cccc(C)c1	-25	7	107	104
COC(=O)C1(C(F)(F)F)N=C(N2CCCCC2)OC(N2CCCCC2)=N1	18	2	100	105
CCn1nc(C)c(CCNC(=O)c2ccc(NC(=O)C3=CSCCO3)cc2)c1C	-18	-21	99	101
CNCC(=O)Nc1ccc(OC)cc1	9	-7	103	108
COc1ccc(C(=O)NC(C)c2nnc(SCC(=O)Nc3nc(C)c(C)s3)n2C)cc1 (stereo not given)	-10	-1	103	103
Cc1ccc(/C(N)=N\O)n1C	52*	.	102	95
CC(C(=O)Nc1ccon1)N1C(=O)c2ccccc2S1(=O)=O (stereo not given)	-24	14	104	105
CCOc1ccc(S(=O)(=O)N(C)CC(=O)N2CCOCC2)cc1	15	1	104	104
CC(C)(C)c1ccc(OCC(=O)Nc2cccc3nsnc23)cc1	-29	8	99	102
CCOC(=O)CC1C(=O)NCCN1Cc1ccco1 (stereo not given)	5	19	101	99
CSc1ncccc1C(=O)OCC(=O)Nc1ccc(N2CCOCC2)cc1	1	10	108	107
C=C(C)C(=O)Oc1ccc(NC(C)=O)cc1	.	-10	101	104

Reprinted at random: 7 compounds from above, in no set order.
SMILES	MenB inh	Mtb MbtI inh	Polio RdRp inh	Polio RdRp inh intensity
COC(=O)C1(C(F)(F)F)N=C(N2CCCCC2)OC(N2CCCCC2)=N1	18	2	100	105
CCSc1nnc(Cc2cc(=O)[nH]c(=O)[nH]2)n1-c1cccc(C)c1	-25	7	107	104
CC(C)(C)c1ccc(OCC(=O)Nc2cccc3nsnc23)cc1	-29	8	99	102
CC(C)c1ccc([C@@H]2Nc3ccc(C(=O)O)cc3[C@@H]3C=CC[C@@H]32)cc1	-32	77	92	103
CCn1nc(C)c(CCNC(=O)c2ccc(NC(=O)C3=CSCCO3)cc2)c1C	-18	-21	99	101
CCOc1ccc(S(=O)(=O)N(C)CC(=O)N2CCOCC2)cc1	15	1	104	104
CCC(C)NC(=O)[C@@H]1CCCN1S(=O)(=O)c1ccccc1C(F)(F)F (stereo not given in full)	-15	-5	102	110

Remaining list, next part.
SMILES	MenB inh	Mtb MbtI inh	Polio RdRp inh	Polio RdRp inh intensity
Cc1nc2n(CCN3CCOCC3)c3ccccc3n2n1	1	-11	101	104
Cn1c(=O)cc(SCC(=O)NCCCN2CCOCC2)c2ccccc21	-27	24	99	102
Cn1cc(C(=O)c2ccccc2O)cc1-c1nc2ccccc2s1	-42	-45	138	164
COc1ccc(OC)c(NC(=O)C2C3CC/C=C\CC/C=C/CCC32)c1 (stereo not given)	-5	.	105	99
COc1ccc(CCNC(=O)/C=C/c2ccc(F)cc2)cc1OC	.	-9	102	103
CC(O)Cc1nsc(NC(=O)c2cccs2)n1 (stereo not given)	-31	9	104	102
O=C(NC1CC1)c1cc2ccccc2o1	0	3	100	103
Cc1ccc(-c2cc3c4c(C)n(C)c(C)c4c(C)nn3c2)o1	-15	1	100	104
NC(=O)COC(=O)c1ccc(S(=O)(=O)N2CCCC2)cc1	-25	-14	106	104
O=c1c2oc3cccc4c3n(c=2c(=O)c2ccccc12)CCC4	-7	-284	105	101
COc1ccc(C(=O)CN2CCN(S(=O)(=O)c3ccc(C(C)C)cc3)CC2)cc1OC	11	5	100	103
CCc1nnc(NC(=O)C2=CCN(S(=O)(=O)c3ccc(F)cc3)CC2)s1	-5	-4	97	99
CCOC(=O)CN1CC23C=CC(O2)C(C(=O)NCc2ccccc2OC)C3C1=O (stereo not given)	-10	-6	102	102
COc1ccc2nc(SCc3cnc(C)nc3N)[nH]c2c1	3	13	108	101
Cc1cccn2c(=O)c(/C=N/NCCC#N)c(Sc3nc4ccccc4s3)nc12	-14	23	98	96
CSc1ccccc1C(=O)NCc1n[nH]c(=O)c2ccccc12	-19	9	103	102
O=C(CSc1nnc(C2CCCCC2)o1)c1ccc[nH]1	-24	-2	105	108
O=C(Cc1ccccc1)Nc1nc2nc(-c3ccccc3)cc(=O)n2[nH]1	6	-9	101	101
O=c1/c(=C/c2ccc(O)c(Cl)c2)sc2nc3ccccc3n12	7	1	117	123
CS(=O)(=O)Cc1nc2ccccc2[nH]1	5	2	101	103
O=C(Nc1ccccc1)OC1CCS(=O)(=O)C1 (stereo not given)	10	-4	99	103
Nc1nc(SCC(=O)C23CC4CC(CC(C4)C2)C3)nc(-c2ccncc2)n1	-19	10	106	106
COc1ccc(/C=[N+](\C)[O-])cc1OC	12	16	102	105
CCOC(=O)c1cn(CC(=O)Nc2ccccc2)nn1	-18	-1	104	106
COc1ccc(CC(=O)OCC(=O)N2CCCC(C)C2)cc1 (stereo not given)	-9	4	101	99
CN1C(=O)/C(=C\c2ccc(C(=O)NCc3ccco3)cc2)SC1=S	-12	1	.	.
Nc1nc(=S)nc(C2CCC2)[nH]1	-2	-2	95	96
Cc1cc(C(=O)CSc2nc(N)c(C#N)cc2C#N)c(C)n1Cc1ccc(F)cc1	-7	-1	106	110
COc1ccc(CNC(=O)CCn2c(=O)c3sccc3n(Cc3cc(C)ccc3C)c2=O)cc1	-10	-8	103	106
CC(CCC(=O)O)C1CC[C@H]2C3CCC4CC(=O)CCC4(C)[C@H]3CC(=O)C12C (stereo not given in full)	-18	-10	102	106
COC(=O)c1ccccc1NC(=O)C1CC(c2cccc(Br)c2)=NO1 (stereo not given)	-11	-14	.	.
CC1(C)CC(=O)C=C(SCc2c(Cl)cccc2Cl)S1	-10	-14	106	111
CC(C)n1c2ccc(Cl)cc2c2nc3ccccc3nc21	-11	4	106	104
O=C1c2nc3cc(-c4ccco4)[nH]n3c(=O)c2CN1C1CCCCC1	-13	-7	105	104
CC1=CCC2C(=O)N(C(CC(C)C)C(=O)O)C(=O)C2C1 (stereo not given)	8	-1	101	102
Fc1ccc(CSc2ncnc3c2oc2ccccc23)cc1	3	2	102	98
CCCCn1c(COc2cc(C)cc(C)c2)nc2cc(S(N)(=O)=O)ccc21	-26	14	98	105
O=C(CC(Sc1ccccc1)c1ccc2c(c1)OCO2)c1ccco1 (stereo not given)	-44	-3	102	101
O=C(CC(=O)N=Nc1c(O)[nH]c2ccccc12)N=Nc1c(O)[nH]c2ccccc12	-105	2	100	100
CC1(C)S[C@@H]2C(N3C(=O)[C@@H](c4ccccc4)NC3(C)C)C(=O)N2[C@H]1C(=O)O (stereo not given in full)	5	-9	101	100
COc1cccc(-c2cc(C(F)(F)F)n3ncc(C(=O)NC4CCCC4)c3n2)c1	-3	-3	100	103
O=c1c2ccccc2[nH]c(=S)n1CC1CCCC1	-32	-1	103	102
O=C(CCc1nc2ccccc2o1)Nc1ccccc1C(=O)NC1CCCC1	-4	1	100	104
Cc1n[nH]c(C)c1CCc1nc2c3ccccc3nc(NCc3ccccc3)n2n1	-11	24	101	105
CN1CCN(n2c(-c3ccc(Cl)cc3)csc2=Nc2ccccc2)CC1	-5	.	104	100
Cc1ccc(-n2c(C)cc(/C=N/NC3CCS(=O)(=O)C3)c2C)cc1 (stereo not given)	3	15	166	170
N#Cc1c(NC(=O)COC(=O)c2ccccc2)oc(-c2ccccc2)c1-c1ccccc1	-28	48	100	100
OCCCc1cn(-c2ccccc2)c2ccccc12	-19	.	103	99
CCc1cccc(NC(=O)c2cc3cc4cc(OC)ccc4nc3s2)c1	-45	1	98	101
CCN(Cc1ccccc1)C(=O)Cn1c(=O)cc(C)c2c(C)nn(C)c21	-27	10	105	103
Cc1ccc(-c2c(C(=O)N(CC(C)C)CC(C)C)oc(=O)c3ccccc23)cc1	-2	-2	102	107
NC(=O)c1cccc(S(=O)(=O)N2CCCCC2)c1	-49	-9	102	102
O=C(NCc1cccnc1)c1cc(-c2ccccc2F)no1	2	-16	101	101
Cc1ccccc1OCCn1cc(/C=C(\C#N)C(=O)NC2CC2)c2ccccc21	-143	-14	105	103
CCCSc1ccc(N)nc1	3	-312	100	103
CC(C)N(CCc1ccncc1)C(=O)Nc1ccc(Cl)c(Cl)c1	-7	1	100	100
Cn1c(CSCCOc2ccccc2)n[nH]c1=S	-25	53	101	101
Cc1ccccc1NCCC(=O)NCc1ccccc1F	-30	-4	101	98
CCc1nnsc1C(=O)Nc1ccc(S(=O)(=O)N2CCOCC2)cc1	-28	0	102	106
CCC(C)(C)C1CCC(=NNc2ccccn2)CC1 (stereo not given)	-34	49	108	111

Additional structures
SMILES	MenB inh	Mtb MbtI inh	Polio RdRp inh	Polio RdRp inh intensity
CC(C)N1CCC2(CC1)N=C(c1ccc3c(c1)OCO3)CC(c1cc(Cl)ccc1O)N2 (stereo not given)	-7	-1	100	102
O=C(COC(=O)c1ccc2ccccc2n1)Nc1cc(C(F)(F)F)ccc1N1CCOCC1	-5	8	109	110
O=C(/C=C/c1ccco1)N1CCc2ccccc2C1	-4	57	.	.
Cc1cccc(NCC(O)Cn2nnnc2-c2ccccc2)c1 (stereo not given)	-15	0	102	97
CCCCC(C(=O)O)N1C(=O)c2ccccc2C1=O (stereo not given)	-18	-2	103	107
O=C(OCC(=O)N1CCc2ccccc21)c1n[nH]c2ccccc12	.	-9	102	102
Cc1cn(CC(=O)c2ccccc2)c2ccccc12	-5	-12	100	104
Oc1cccc2c(NC(=S)NC3CC3)cccc12	-8	27	109	96
C#Cc1cccc(-n2nnc(-c3ccccc3)c2C)c1	8	-4	100	98
CC(C)CC1CC(=O)NC(N)=N1 (stereo not given)	7	41	103	99
Cc1nn(CC(=O)NCCCN2CCOCC2)c(=O)c2c1sc1ccccc12	2	9	101	102
CC(C)NC(=O)c1cc2c(s1)CCC2	.	-3	104	107
O=C1c2ccccc2C(=O)N1SC1CCCCC1	-1	6	100	102
CC1CN(C(=O)COC(=O)c2ccc(C(=O)c3ccccc3)cc2)CC(C)O1 (stereo not given)	1	2	95	96
CCOC(=O)c1c(-c2ccc(OC)cc2)noc1C	18	-2	101	102
Cn1c(-c2ccc(C(=O)c3ccccc3)s2)nc2ccccc21	-29	-6	99	103
Cc1ccc(C(OCC(C)(C)C[N+](C)(C)C)c2ccccc2)cc1 (stereo not given)	-23	5	104	103
Nn1c(SCc2cccnc2)nncc1=O	-60	5	102	99
